Rango release inh – inhibitors of RanGTP-induced Rango-importin beta complex dissociation; AID 540253; Biochemical FRET Rango-importin beta, RanGTP-induced dissociation; Potency, µM (titrated, usually from 46.1 µM), inactives show at the top dose activity change, negative = inhibition; hit rate 0.071% among 340,000; O95149+P62826; active means falling FRET ratio curve, often poorly fitted, with flat reads before Ran was added; inconclusive means other falling curves, or compound fluorescence or quenching; inactive means flat or rising ratio curve;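 further: potency means the concentration at half of the fitted maximal effect; % of control where 0% means no effect; nearly all actives have a fitted effect of over 45% in size; -100% = wells without RanGTP and RCC1; the record marks most hits as doubtful in a second field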
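FRET read at 45 min, room temperature: inhibitors block the CFP/YFP signal rise when RanGTP (0.6 uM Ran, 2 mM GTP, 0.2 uM RCC1) frees Rango (0.1 uM) from importin beta (0.25 uM). Pre-read after 5 min compound exposure flags interference.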
Rango complex inh – Rango-importin beta binding inhibition. Q14974. Rango CFP/YFP FRET sensor + importin beta, 45 min. Potency, µM (highest dose often 92.2 µM), for inactives: at the highest dose inhibition of complex formation. hit rate 0.031% among 340,000. AID 540263; active = rising FRET ratio curve, often small or poorly fitted; inconclusive = mostly compound fluorescence or quenching in the first reads; inactive = flat curves in all reads;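 further: potency means the concentration at half of the fitted maximal effect; 0% = DMSO wells and 100% = buffer wells lacking importin beta; nearly all actives have a fitted effect of over 15% in size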
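FRET biosensor Rango (snurportin 1 IBB between N-terminal EYFP and C-terminal Cerulean), 50 nM in PBS/1 mM DTT/0.02% Tween-20/0.1% BSA, preincubated 5 min RT with compound; 0.125 microM importin beta added, 45 min RT, CFP/YFP FRET ratio read.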
miR-21 reporter – miR-21 reporter, rising signal; 340,000 tested, under 10 active; HeLa miR-21 FLuc reporter, luciferase, 48 h; AID 2288; Potency, µM (doses to about 38.3 µM), inactives show top-dose reporter change, positive = more light; active = well fitted rising curve with a large enough effect; inconclusive = small, poorly fitted or top-dose-only effect; inactive = no such curve, though single readings can be large or run the other way;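 further: % of control where 0% means no effect; miR-21 action dims this reporter so a rising signal means less miR-21 action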
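HeLa cells stably expressing CMV-driven firefly luciferase with a downstream miR-21 binding sequence, endogenously expressing miR-21, were treated with titrations (up to about 40uM final) for 48 hours at 37 degree Celsius. Luciferase luminescence was read after lysis.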
GLA inh pH 4.5 – blocks human alpha-galactosidase A at pH 4.5. P06280. purified enzyme, 4-MU-alpha-Gal fluorescence, pH 4.5. activity change, negative = inhibition, % at 105 µM. 230,000 tested, under 10 active. AID 1467; inconclusive = small, poorly fitted or top-dose-only inhibition, or a rising curve; inactive = flat fitted curve, though single readings scatter; no compound was filed as active;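 further: 0% = full activity with enzyme and -100% = basal without enzyme; dose as in the result columns while the protocol names 77 µM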
Target sequence (P06280 whole entry, looked up): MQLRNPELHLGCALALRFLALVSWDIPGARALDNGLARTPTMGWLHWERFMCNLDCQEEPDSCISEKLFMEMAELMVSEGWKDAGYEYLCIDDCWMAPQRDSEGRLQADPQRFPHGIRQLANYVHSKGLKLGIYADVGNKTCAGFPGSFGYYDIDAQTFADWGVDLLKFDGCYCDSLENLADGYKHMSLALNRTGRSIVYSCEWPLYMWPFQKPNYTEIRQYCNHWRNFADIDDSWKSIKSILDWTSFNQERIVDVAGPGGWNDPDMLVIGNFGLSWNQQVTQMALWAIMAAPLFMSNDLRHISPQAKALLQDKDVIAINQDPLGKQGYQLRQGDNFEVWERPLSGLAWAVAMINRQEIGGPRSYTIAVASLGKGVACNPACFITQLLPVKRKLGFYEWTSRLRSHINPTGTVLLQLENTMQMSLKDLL
Active calls of the source: *; ? = inconclusive; . = not tested or not shown.

#	Compound	Rango release inh	Rango complex inh	miR-21 reporter	GLA inh pH 4.5
1	CN=c1sc2ccccc2n1CC(O)COCc1ccco1 (stereo unspecified)	27.1%	2.0%	-3.8%	5.7
2	CSc1ccc(/C=C/C(=O)N2CCCN(C)CC2)cc1	-7.1%	0.7%	-18.6%	-11.5
3	COc1ccc(/C=C2\CC/C(=C\c3ccc(OC)c(OC)c3)C2=O)cc1OC	-6.2%	-0.8%	-8.4%	0.7
4	CC12CCC(C(=O)NCc3ccc4c(c3)OCO4)(C(=O)C1=O)C2(C)C (stereo unspecified)	12.9%	-1.4%	-6.1%	-6.4
5	Cc1cc(C)c(-n2nnnc2SCC(=O)c2cc3ccccc3o2)c(C)c1	6.7%	0.4%	-2.3%	-2.6
6	COc1ccc(CNC(=O)CN(CC2CCCO2)C(=O)CNS(=O)(=O)c2ccc(F)cc2)cc1 (stereo unspecified)	2.0%	0.0%	-3.7%	1.6
7	COc1cccc(NC(=O)COc2c(F)c(F)c(C(F)(F)F)c(F)c2F)c1	25.7%	-5.1%	-21.1%	-11.0
8	NC(=O)c1c(NC(=O)c2cccnc2)sc2c1CCCC2	13.4%	0.8%	-31.7%	0.2
9	Cc1cc2nc3n(c2cc1C)CC1CC(C(=O)NCc2ccco2)N(C)C31 (stereo unspecified)	-7.7%	-2.8%	-5.0%	-1.2
10	Cc1ccc(NC(=O)c2ccc3c(c2)N(CC(=O)N2CCCCC2)C(=O)C(C)(C)O3)cc1	-5.1%	-2.2%	3.9%	-7.1
11	CCCC1CC(CCc2ccccc2)OS(=O)(=O)N1 (stereo unspecified)	13.8%	2.8%	-3.9%	.
12	C[N+](C)(C)CCOc1ccc([N+](=O)[O-])cc1	-13.1%	-1.1%	-1.7%	1.9
13	Cc1cc(NC(=O)C(C)SCC(=O)N(Cc2ccccc2)c2ccccc2)no1 (stereo unspecified)	18.6%	1.2%	.	.
14	Cc1cc(C)n2nc(CCCO)nc2n1	-1.9%	-1.8%	-4.4%	-1.3
15	CCO/C(C)=C1/SC(=S)NC1=O	-25.1%	?	0.0%	-11.0
16	Cc1ccc(Nc2c([N+](=O)[O-])c(=O)n(C)c3ccccc23)cc1	6.0%	4.2%	9.8%	-27.8
17	COc1ccc(NC(=O)CN(C)C(=O)c2ccc(N3CCCCC3)c([N+](=O)[O-])c2)cc1	-3.5%	-0.2%	.	.
18	Cc1cc(C(=O)NNC(=O)c2ccc(S(=O)(=O)N(C)C)cc2)c(C)o1	7.7%	-1.6%	0.3%	3.4
19	COc1ccccc1NC(=O)C1=C(C)Nc2nc(CCCO)nn2C1c1cccnc1 (stereo unspecified)	1.2%	0.7%	-2.1%	7.6
20	CC(C)c1nnc(NC(=O)C2CCN(C(=O)Nc3ccc(Cl)cc3)CC2)s1	6.4%	1.1%	-8.7%	.
21	CSCc1ccc(C(=O)NC(C)c2cnn(-c3ccccn3)c2C)o1 (stereo unspecified)	20.0%	-5.8%	-23.0%	.
22	Cc1cccc(NC(=O)CCNC(=O)c2ccco2)c1C	5.9%	7.4%	4.8%	7.3
23	O=C(COC(=O)c1ccc2ncsc2c1)Nc1cc([N+](=O)[O-])ccc1Cl	0.7%	-5.1%	.	.
24	CCN(CC)S(=O)(=O)c1ccc(Cl)c(NC(=O)CSc2cccc[n+]2[O-])c1	-7.0%	0.0%	-2.4%	-1.0
25	COc1ccc(Oc2c(Cl)cnn(-c3ccc(Cl)c(Cl)c3)c2=O)cc1	-4.1%	2.7%	0.0%	-6.6

Later entries:
#	Compound	Rango release inh	Rango complex inh	miR-21 reporter	GLA inh pH 4.5
26	COc1ccccc1C(=O)N/C(=C/c1ccc(Br)cc1)C(=O)NCC(=O)O	1.4%	0.7%	-1.8%	7.3
27	Cn1ccnc1Sc1ccc(C(N)=O)cc1[N+](=O)[O-]	-3.0%	-0.3%	-0.3%	-2.2
28	CC(=O)c1ccc(OC(=O)CCc2ccccc2)cc1	23.4%	-0.4%	-0.5%	.
29	COc1ccc(-c2noc(N3CCCC(C(=O)Nc4ccccc4F)C3)n2)cc1 (stereo unspecified)	-10.8%	-2.1%	0.0%	.
30	COC(=O)c1c(C)[nH]c(C(=O)COC(=O)c2c(C)noc2C)c1C	-8.7%	-6.6%	.	.
31	NC(=O)c1ccc(SCC(=O)OCC(=O)N2CCCCC2)c([N+](=O)[O-])c1	0.3%	?	.	.
32	Cc1cccc(C)c1NC(=O)CSc1nc(COc2ccccc2)nc2ccccc12	-2.4%	-3.8%	-7.9%	3.5
33	CC(=O)C1=C(O)C(=O)N(CCNCCO)C1c1ccccc1 (stereo unspecified)	-3.8%	-2.8%	2.4%	4.9
34	Cn1c(/C(C#N)=C(\O)CN2CCN(Cc3ccccc3)CC2)nc2ccccc21	5.2%	-0.4%	-5.7%	0.9
35	O=c1c2ccccc2ncn1CCOc1ccccc1[N+](=O)[O-]	-3.5%	-0.3%	-35.6%	5.6
36	COc1cccc(OCCNc2ccc([N+](=O)[O-])cn2)c1	-6.4%	?	.	.
37	CCc1ccc(OCCOCC(O)CNC(C)CC)cc1 (stereo unspecified)	5.8%	2.4%	-0.7%	-23.4
38	ON1C(c2ccccc2)CC2(O)c3nonc3CCC12 (stereo unspecified)	-6.3%	-0.2%	-2.1%	-5.9
39	CCn1c(NC(C)=O)c(-c2ccccc2Cl)c(=O)c2ccccc21	-21.9%	?	0.2%	.
40	O=C1CC(NS(=O)(=O)c2cccs2)CN1c1cccc(F)c1 (stereo unspecified)	-27.5%	5.1%	.	.
41	C#CCOC(=O)CCC(=O)NCCc1ccccc1	0.9%	-5.0%	-5.5%	-2.0
42	O=[N+]([O-])c1ccc(S(=O)(=O)Nc2nnc(C(F)(F)F)s2)cc1	-4.0%	-0.4%	-3.2%	.
43	CC1CCN(C(=O)c2ccccc2NC(=O)Cc2ccccc2)CC1	1.5%	0.4%	-22.8%	.
44	CCN(CC)c1ccc(C(=O)OCC(=O)Nc2cc(C)on2)cc1	6.4%	-0.8%	.	.
45	O=C(Cn1nnc(-c2ccc(CN3CCOCC3)cc2)n1)Nc1nc(-c2ccccc2)cs1	3.9%	-3.7%	11.7%	-9.5
46	CC(=O)c1csc(COc2ccc(Cl)cc2)n1	1.7%	-0.4%	-17.7%	-10.3
47	Fc1ccc(-c2csc(N3CCOCC3)n2)cc1	5.8%	4.2%	-55.5%	1.0
48	Cc1cc(N/N=C/c2ccncc2)c([N+](=O)[O-])cc1[N+](=O)[O-]	-13.0%	0.8%	4.9%	-0.9
49	Cc1ccc(S(=O)(=O)NC2CC(C)(C)NC(C)(C)C2)cc1	6.5%	0.2%	-2.4%	.
50	CCc1ccc(NC(=S)NCc2ccccc2)cc1	13.2%	-3.4%	-31.1%	-1.3

(more compounds)
#	Compound	Rango release inh	Rango complex inh	miR-21 reporter	GLA inh pH 4.5
51	O=C(NC1CCCCCC1)c1cc(S(=O)(=O)N2CCOCC2)ccc1F	-20.5%	2.7%	-18.8%	.
52	Cc1csc(SCC(=O)Nc2cc([N+](=O)[O-])ccc2F)n1	28.8%	-0.6%	.	.
53	Cc1cc(OC(=O)c2ccc(Cl)cc2)cc(=O)n1C	-18.2%	?	-2.3%	-4.1
54	CCN(CC)C(=O)c1[nH]cnc1C(=O)Nc1cccc(Cl)c1	-0.2%	-2.1%	.	.
55	COc1ccc(N(Cc2cc3cccc(C)c3[nH]c2=O)C(=O)C2CCCO2)cc1 (stereo unspecified)	-6.7%	0.8%	-2.2%	4.1
56	O=C1c2ccccc2C(=O)N1CCSc1ccccc1	-0.5%	-1.2%	-57.4%	-9.6
57	COc1ccccc1OCc1csc(NC(=O)c2ccco2)n1	6.9%	?	-34.3%	-10.2
58	COc1ccc(S(N)(=O)=O)cc1C(=O)OCC(=O)NC(C)(C#N)C1CC1 (stereo unspecified)	-5.0%	-0.8%	.	.
59	CCOc1ncccc1C(=O)Nc1cccc(-c2nc3cccnc3s2)c1	46.5%	-2.5%	-0.6%	-1.3
60	CCc1cc2c(SCC(=O)Nc3cc(C)on3)ncnc2s1	-23.1%	-2.7%	-0.2%	11.1
61	CCOCCCNC(=O)c1cccc(NC(=O)C2=C(C)OCCS2)c1	0.8%	5.3%	-1.5%	.
62	COC(=O)C1=CN(Cc2ccc(C)cc2)C=C(C(=O)OC)C1c1ccc(F)c(F)c1	?	?	16.2%	.
63	Cc1cc(OCC(=O)c2ccc(C(F)(F)F)cc2)n2cnnc2n1	5.4%	-0.2%	-0.8%	9.8
64	CCOC(=O)CSc1nc(N)c(C#N)c(-c2ccc(OC)cc2)c1C#N	-9.8%	?	-13.3%	4.0
65	Cc1ccc2c(c1)C1(C(=O)N2)N2CCCC2C(C(=O)c2ccc3ccccc3c2)C12C(=O)Nc1ccccc12 (stereo unspecified)	-7.4%	0.6%	-4.4%	-4.7
66	Cc1nn(CC(=O)N(C)C2(C#N)CCCCC2)c(C)c1[N+](=O)[O-]	6.0%	?	.	.
67	O=CNC(n1cnc2c(N3CCOCC3)ncnc21)C(Cl)(Cl)Cl (stereo unspecified)	-18.8%	0.3%	-0.7%	-2.9
68	CNc1snc(C)c1C(=O)OC(C)C(=O)Nc1ccc(F)cc1 (stereo unspecified)	-1.8%	-2.6%	.	.
69	COc1ccc2c(C(=O)CN3CCSCC3)c[nH]c2c1	2.9%	-0.2%	-40.7%	0.7
70	O=C(O)CSCC(=O)Nc1ccc(Cl)cc1C(F)(F)F	23.7%	-1.9%	3.1%	5.2
71	O=S(=O)(Nc1nc2ccccc2nc1N1CCN(CCO)CC1)c1cc(F)ccc1F	0.0%	-1.0%	.	.
72	CCc1nc(N[C@@H](Cc2c[nH]c3ccccc23)C(=O)O)c2oc3ccccc3c2n1	-10.1%	4.7%	-0.8%	-8.7
73	COC(=O)c1ccsc1NC(=O)CN1C(=O)CCC1=O	9.5%	0.6%	0.3%	-7.2
74	O=C(Nc1ccc(S(=O)(=O)Nc2nccs2)cc1)c1ccc(F)c(S(=O)(=O)N2CCOCC2)c1	?	?	-2.2%	-0.3
75	CC(=O)Nc1ccc(S(=O)(=O)Nc2cccc(-n3cnnn3)c2)cc1	21.1%	-0.2%	-0.7%	.

Next results:
#	Compound	Rango release inh	Rango complex inh	miR-21 reporter	GLA inh pH 4.5
76	Cc1ccc(C)c(-n2ccnc2SCC(=O)c2c(N)n(C3CC3)c(=O)[nH]c2=O)c1	-14.9%	7.0%	.	.
77	COc1ccc(CCNC(=O)Cc2cc(OCc3ccccc3)c(OC)cc2[N+](=O)[O-])cc1OC	-2.0%	8.0%	-1.8%	-2.0
78	Cc1cc(=O)[nH]c(SCc2nnc(-c3ccccc3)o2)n1	0.1%	0.5%	-23.1%	4.4
79	CCc1nn(CC(=O)NCCN2CCOCC2)c(=O)c2cc3c(OC)cccc3n12	?	?	0.9%	.
80	O=C(O)Cc1ccc(C(=O)CSc2ccccc2)s1	-15.7%	?	-7.1%	-4.3
81	COc1ccccc1/C=C/CN1CCC(Oc2ccc(C(=O)N3CCCCC3)cc2)CC1	-2.4%	2.7%	7.6%	.
82	COCCn1c(SCC(=O)N2CCCc3ccccc32)nc2cccnc21	-6.6%	-3.3%	0.6%	2.5
83	CCOC(=O)C(C(=O)OCC)C(C[N+](=O)[O-])c1ccccc1 (stereo unspecified)	24.7%	?	-2.0%	-4.7
84	CCCCOc1ccc(N2CC(C(=O)NCCc3ccc(OC)c(OC)c3)CC2=O)cc1 (stereo unspecified)	1.9%	2.9%	7.7%	-4.0
85	CC(CC(=O)NNC(=O)c1ccncc1)c1ccccc1 (stereo unspecified)	5.7%	-2.7%	.	.
86	N#CNC(=Nc1cccc(F)c1)SCc1ccccc1	?	0.1%	-8.9%	-9.8
87	CCCN1C(=O)C(Cc2nc3ccccc3c(=O)n2-c2ccccc2)c2ccccc21 (stereo unspecified)	-3.5%	0.7%	-18.2%	-0.1
88	CCOC(=O)COn1c(=O)c(-c2ccco2)[n+]([O-])c2ccccc21	18.4µM*	?	0.2%	-5.1
89	COc1ccc2[nH]cc(C(=O)C(=O)N3CCCCC3)c2c1	0.9%	-0.2%	-0.4%	.

The list is partial (hit frequency here may not be typical).
